# Choline anaer gr: blocks anaerobic gram-negative growth on choline | Gram-negative bacterium anaerobic choline minimal medium, absorbance growth; stronger effect = lower value; many inactives read as strong as hits in the columns shown | calls only | actives 0.2% (n = 55,000);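 active = growth z-score on choline under -2 at 7 or 20 h with little or no fall on glycerol, limits in tiers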;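 also: stock transfer was 300 nL into about 50 µL; the organism is E. coli; final concentration not given here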
# Choline anaer gr early: further read-out of Choline anaer gr, marked with its call; z-score; measured here: choline growth z-score, timepoint 1;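 score of optical density at 7 h as mean of two plates; lower means less growth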
# * = called active by the depositor; i = inactive; + = active, no number; & = joins results of further samples; ! = repeats disagree.
SMILES,Choline anaer gr,Choline anaer gr early
CCc1nn2c(=O)cc(COC(=O)CNC(=O)c3cccc(OC)c3)nc2s1,i,0.3
CN1C(=O)CCc2cc(NC(=O)C(C)(C)C)ccc21,i,-0.45
COc1cc(OC)cc(-c2nn3c(-c4ccccn4)nnc3s2)c1,i,0.03
O=C(CNS(=O)(=O)c1cc(-c2noc(C3CCC3)n2)cs1)Nc1cccc(Cl)c1,i,0.48
c1cc(CNc2ncnc3c2CCC3)ccn1,i,-2.1
O=C(NCCc1ccc(Cl)cc1)C1CCCN(C(=O)c2cc(-c3cccnc3)n[nH]2)C1 (stereo unspecified),i,0.22
Cc1ccc(Cl)cc1NCc1nc2nc(C)c(C)c(=O)n2[nH]1,i,-0.52
CCCn1c(=O)c2ccc(Cl)cc2n2c(=O)n(CC(=O)NC3CCCCC3)nc12,i,-0.3
CCCCCn1c(CN2CCOCC2)nc2ccccc21,i,-0.52
CCN1CCN(S(=O)(=O)c2cc(-c3nnc(C)o3)co2)CC1,i,-1.8
Cc1cc(C(=O)Nc2cnn(Cc3ccc(F)cc3)c2)on1,i,-1.6
CCOc1cc(CN2CCCC2c2ccc(Cl)cc2)ccc1O (stereo unspecified),i,-0.12
COc1ccc(Oc2ccnc(-c3ccc(C(=O)NCC4CCCO4)cc3)n2)cc1 (stereo unspecified),i,-0.1
Cc1nnc2c3ccccc3nc(Nc3ccc(N4CCOCC4)cc3)n12,i,-0.31
O=C(NCC1CCCO1)c1c(NC(=O)c2nn(-c3cccc(Cl)c3)ccc2=O)sc2c1CCC2 (stereo unspecified),i,-0.63
CN(C)c1ccc(C(CNS(C)(=O)=O)N2CCc3ccccc3C2)cc1 (stereo unspecified),i,0.13
CN(C)C(=O)c1ccc2c(c1)nc(CN1CCN(C(=O)c3ccccc3Br)CC1)n2C,i,0.49
Cc1ccc(NC(=O)COc2cc(-c3ccccc3)nc3ccccc23)cc1,i,1.9
CC1(C)CC(=O)C2=C(C1)Nc1ccccc1N(C(=O)NC1CCCC1)C2c1ccc(F)cc1 (stereo unspecified),i,0.1
Cc1ccc(S(=O)(=O)NC(C)c2nc(-c3ccc4c(c3)ncn4C)no2)cc1 (stereo unspecified),i,-1.1
CCCc1cc(C2CCCN2Cc2ccc(OC)c(CN3CCOCC3)c2)no1 (stereo unspecified),i,-0.14
CC(C)n1c(N2CCCN(C(=O)c3n[nH]c4c3CCCC4)CC2)cc(=O)n(C(C)C)c1=O,i,-1.9
CC(C)NC(=O)C1CCN(c2ccc(F)cc2)C1=O (stereo unspecified),i,-1.8
Cc1csc(NC(=O)CN2C(=O)C(C)(C)c3cc(S(=O)(=O)N4CCOCC4)ccc32)n1,i,1.9
C[C@@H]1[C@H](O)[C@@H](C)/C=C/C=C/C=C/C=C/C=C/C=C/C=C/[C@H](O[C@@H]2O[C@H](C)[C@@H](O)[C@H](N)[C@@H]2O)C[C@@H]2O[C@](O)(C[C@@H](O)C[C@@H](O)[C@H](O)CC[C@@H](O)C[C@@H](O)CC(=O)O[C@H]1C)C[C@H](O)[C@H]2C(=O)O,i,0.1

# Remaining list, next part.
SMILES,Choline anaer gr,Choline anaer gr early
COc1ccc2[nH]cc(CCNC(=O)Nc3cc(C)cc(C)c3)c2c1,i,1
COc1ccc(OC)c(S(=O)(=O)N2CCN=C2N2CCN(c3ccc(F)cc3)CC2)c1,i,0.47
CCc1ccc(CNC(=O)c2cc3c(=O)n(Cc4cccnc4)ccc3nc2C)cc1,i,0.9
O=C(CN1c2ccccc2S(=O)(=O)c2ccccc21)N1CCCCC1,i,-1.2
CC(C)CNC(=O)CCn1c(=O)c2ccccc2n2c(SCC(=O)NCC3CCCO3)nnc12 (stereo unspecified),i,0.61
O=[N+]([O-])c1ccc2c(c1)S(=O)(=O)C=C2,+!,-2.7*!
Cc1nc2ccn(Cc3cccnc3)c(=O)c2cc1C(=O)NCc1ccc(Br)cc1,i,0.17
CCS(=O)(=O)Nc1ccc2c(c1)CCC(=O)N2C,i,0.79
Cc1cc(=O)n2nc(N3CCC(C(=O)NCCc4ccc(Cl)cc4)CC3)sc2n1,i,0.27
CCOc1cc(CC(=O)N[C@@H](CC(C)C)c2ccccc2N2CCCCC2)ccc1C(=O)O,i,-0.36
O=S(=O)(c1cc(F)ccc1F)N1CCCC1c1ccc(Cl)cc1 (stereo unspecified),i,2
Cc1ccc(C)c(S(=O)(=O)N2CCC3(CC2)NCCN=C3NCc2ccc(F)cc2)c1,i,-1.5
CCS(=O)(=O)c1ccc(-c2cccc(NS(=O)(=O)c3ccc(OC)cc3)c2)nn1,i,3.2
Cc1ccc(NC(=O)NCCc2nc3cccnc3n2Cc2ccccc2)cc1C,i,1.1
CC(C)OCCCn1c(=O)c2ccccc2n2c(=O)[nH]nc12,i,-0.11
CCCCc1ccc(S(=O)(=O)Cc2nc(-c3ccc(OC)cc3)no2)cc1,i,1.1
O=C1NCCN1Cc1ccc(F)cc1,i,-0.61
O=S(=O)(c1ccc(Cl)s1)N1CCCCCC1c1cccs1 (stereo unspecified),i,-0.84
Cc1cccc(NC(=O)C2CCN(c3cnc4ccccc4n3)CC2)c1C,i,-0.85
CC1CS(=O)(=O)N(c2ccc(C(=O)NC3=NCCS3)cc2)C1=O (stereo unspecified),i,-0.59
CCN1c2cc(Cl)ccc2C(=O)NC12CCN(C(=O)Nc1ccc3c(c1)OCO3)CC2,i,0.86
C=CCn1nnc(NCc2ccc(-c3ccc(Br)cc3Br)o2)n1,i,1.5
Cc1ccc2c(c1)c(-n1cccc1)c1n2CC(C)(C(=O)NC2CCCCC2)N(CC2CCCO2)C1=O (stereo unspecified),i,-0.13
Cc1nnc(-c2coc(S(=O)(=O)N3CCCC(C)C3)c2)o1 (stereo unspecified),i,0.43
CN(C)C(=O)c1ccc2c(c1)N(CC(=O)NC1CCCCC1)C(=O)CO2,i,-0.21

# In another format: results already given
structure	Choline anaer gr	Choline anaer gr early
O=C(CN1c2ccccc2S(=O)(=O)c2ccccc21)N1CCCCC1	i	-1.2
CC(C)CNC(=O)CCn1c(=O)c2ccccc2n2c(SCC(=O)NCC3CCCO3)nnc12 (stereo unspecified)	i	0.61
O=[N+]([O-])c1ccc2c(c1)S(=O)(=O)C=C2	+!	-2.7*!
Cc1nc2ccn(Cc3cccnc3)c(=O)c2cc1C(=O)NCc1ccc(Br)cc1	i	0.17
CCS(=O)(=O)Nc1ccc2c(c1)CCC(=O)N2C	i	0.79
Cc1cc(=O)n2nc(N3CCC(C(=O)NCCc4ccc(Cl)cc4)CC3)sc2n1	i	0.27
CCOc1cc(CC(=O)N[C@@H](CC(C)C)c2ccccc2N2CCCCC2)ccc1C(=O)O	i	-0.36
O=S(=O)(c1cc(F)ccc1F)N1CCCC1c1ccc(Cl)cc1 (stereo unspecified)	i	2
Cc1ccc(C)c(S(=O)(=O)N2CCC3(CC2)NCCN=C3NCc2ccc(F)cc2)c1	i	-1.5
CCS(=O)(=O)c1ccc(-c2cccc(NS(=O)(=O)c3ccc(OC)cc3)c2)nn1	i	3.2
Cc1ccc(NC(=O)NCCc2nc3cccnc3n2Cc2ccccc2)cc1C	i	1.1
CC(C)OCCCn1c(=O)c2ccccc2n2c(=O)[nH]nc12	i	-0.11
CCCCc1ccc(S(=O)(=O)Cc2nc(-c3ccc(OC)cc3)no2)cc1	i	1.1
O=C1NCCN1Cc1ccc(F)cc1	i	-0.61
O=S(=O)(c1ccc(Cl)s1)N1CCCCCC1c1cccs1 (stereo unspecified)	i	-0.84

# (further entries)
SMILES,Choline anaer gr,Choline anaer gr early
CCOC(=O)c1[nH]c(C)c(CN(C(=O)Nc2cc(Cl)c(OC)cc2OC)C2CCCCC2)c1C,i,-0.05
CCCC(=O)Nc1cccc(-c2ccc(S(=O)(=O)CC)nn2)c1,i,1.4
Cc1cc(C)c(NC(=O)C(C)Sc2nc3ncccc3[nH]2)c(C)c1 (stereo unspecified),i,0.27
O=C(Nc1ccc2c(c1)OCO2)Nc1nccn(-c2ccc(F)cc2)c1=O,i,1.3
O=C(Nc1c(-c2ccc(F)cc2)nc2ccccn12)c1cccc(Cl)c1,i,0.61
O=C(NC1CCCCC1)c1ccc2c(c1)OCCCO2,i,-1.6
Cc1cc(C)c(S(=O)(=O)N(C)CCc2noc(COc3ccc(Cl)cc3)n2)c(C)c1,i,1
CN1CCC2(CC1)N=C(c1ccc(Br)cc1)CC(c1cc(Cl)ccc1O)N2 (stereo unspecified),i,-0.46
O=C(Nc1ccc2nc(N3CCN(c4ccccc4)CC3)cc(C(=O)O)c2c1)c1ccccc1Cl,i,-0.34
Cc1cccc(C)c1Nc1c(-c2ccc(N(C)C)cc2)nc2ncccn12,i,1.1
COc1cccc2c1Oc1ncccc1N(C(=O)Nc1ccc(F)c(Cl)c1)C2,i,0.28
Cc1[nH]c(=O)c(C#N)cc1-c1ccncc1,i,0.35&0.2&-0.39&-0.07
COc1cc(Cl)c(NS(=O)(=O)c2cc(-c3cc(C)no3)cs2)c(OC)c1,i,-0.69
CC(=O)N1CCSc2ccc(S(=O)(=O)Nc3cccc(C)c3C)cc21,i,0.83
CNC(=O)c1nn(-c2ccccc2)c(=O)cc1OC,i,-0.11
COCCNC(=O)CSc1nc(-c2ccccc2)[nH]c1-c1ccccc1,i,0.77
CCN(CC)S(=O)(=O)c1ccc2c(c1)nnn2CCC(=O)N1CCN(c2ccccn2)CC1,i,-2
O=c1cc(CSc2nnc(-c3ccc4c(c3)OCO4)o2)nc2sccn12,i,1.4
CCOc1ccc(NC(=O)NC(c2ccccc2)c2nnc(-c3ccccc3)o2)cc1 (stereo unspecified),i,1.1
O=c1[nH]c(N2CCN(C3CCCCC3)CC2)nc2c(-c3ccc(F)cc3)csc12,i,0.29
Cc1ncc2c(n1)CCN(S(=O)(=O)c1cccc3cccnc13)C2,i,0.19
Cc1nn(-c2ccc3nnc(C)n3n2)c2c1C(c1cccc(Cl)c1)CC(=O)N2 (stereo unspecified),i,0.24
Cc1cc(C)cc(NC(=O)CN2C(=O)C(C)(C)c3ccccc32)c1,i,-0.43
Cc1cc(C)cc(NC(=O)CC2(CC3=NS(=O)(=O)c4ccccc4N3)CCCC2)c1,i,1
Cc1nc(-c2cc(S(=O)(=O)N3CCC(C(=O)NCCc4nc5ccccc5[nH]4)CC3)c(C)s2)no1,i,-1.3

# Later entries:
SMILES,Choline anaer gr,Choline anaer gr early
Cc1cccc(N2CCN(C(=O)C3CCCN(c4nc5cccnc5s4)C3)CC2)c1C (stereo unspecified),i,0.87
COc1ccc(-n2nc(C(=O)NCc3ccc4c(c3)OCO4)c(=O)n(C)c2=O)cc1,i,-1.9
Cc1ccc(-c2nn3c(=O)cc(CNC(=O)Nc4cc(Cl)ccc4C)nc3s2)cc1,i,0.7
Cc1noc2c1C(C(C)C)C1=C(CC(c3ccccc3)CC1=O)N2 (stereo unspecified),i,-0.21
Cc1cc(C(=O)C2CC(=O)Nc3c2c(C)nn3-c2cccc(Cl)c2)c(C)s1 (stereo unspecified),i,-0.4
COC(=O)c1ccc(C)c(NC(=O)c2nsc3ccccc23)c1,i,0.93
Cc1oc(C2CCC2)nc1C(=O)NC(C)c1ccco1 (stereo unspecified),i,0.05
CN(CCCCCCCCCCN(C)C(=O)Oc1cccc([N+](C)(C)C)c1)C(=O)Oc1cccc([N+](C)(C)C)c1,i,-0.94
COc1ccc(CNc2nn3cnnc3c3ccccc23)cc1,i,-0.01
COc1ccc(-c2noc(CSc3ccc(-c4ccc5c(c4)OCO5)nn3)n2)c(OC)c1,i,0.38
COc1c(N2CCNC(C)C2)c(F)cc2c(=O)c(C(=O)O)cn(C3CC3)c12 (stereo unspecified),i,-2.3&-2.8
O=c1c2cccnc2nc(SCc2cc(=O)n3ccccc3n2)n1Cc1ccc(F)cc1,i,-1.3
CCn1cnc2c1CN(S(=O)(=O)c1ccc(Cl)s1)CC2,i,-1.6
CNC(=O)c1ccc(Cn2c(=O)c3cc(OC)c(OC)cc3n(CC(=O)NC3CCCC3)c2=O)cc1,i,-0.6
Cc1cccc(N2CCN(C(=O)CCCn3c(=O)[nH]c4ccc(Br)cc4c3=O)CC2C)c1 (stereo unspecified),i,1.1
CCOc1ccc(-n2nnnc2CNC(=O)Nc2cccc(OC)c2)cc1,i,0.54
CCOc1ccc(NC(=O)CN2CCc3c(c(=O)c4cc(C)ccc4n3C)C2)cc1,i,0.57
Fc1ccc(Nc2nc3ccccc3c3nncn23)cc1F,i,-0.33
COc1ccc(OCC(=O)N2CCCC(c3nc(-c4ccc(NC(C)=O)cc4)no3)C2)cc1 (stereo unspecified),i,0.28
CCCCN1C=C(OC(=O)C(C)C)c2ccccc2S1(=O)=O,i,-0.61
COc1ccc(C(=O)Nc2cnc3oc(-c4ccc(OC)cc4)nn3c2=O)cc1,i,-0.72
Cc1cc(OCc2nc(C)c(C(=O)NCC3CCCO3)s2)ccc1Cl (stereo unspecified),i,0.52
Cc1cccc(-n2c(=O)c3c(c4cc(C)ccc4n3C)n(C)c2=O)c1,i,0.14
C=CCn1cnc2c(-c3ccc(C)cc3)csc2c1=O,i,-0.19
CCCCS(=O)(=O)N1CCc2c(c(-c3nnc(SCC)n3CC)nn2C)C1,i,-1.4

# Additional structures follow:
SMILES,Choline anaer gr,Choline anaer gr early
CCC12CN3CC(CC)(CN(C1)C3c1cc(Br)ccc1O)C2O (stereo unspecified),i,-0.58
Cc1cc(=O)[nH]c(-n2nc(C)cc2NC(=O)c2ccc(Cl)cc2)n1,i,-0.64
O=C(NCc1ccc2c(c1)OCO2)C1CCCN(C(=O)C2Sc3ccccc3NC2=O)C1 (stereo unspecified),i,-0.44
COc1ccc(Nc2c(C(=O)N3CCCCC3)cnc3ccc(F)cc23)c(OC)c1,i,-0.45
O=C(CN1C(=O)c2ccccc2C1=O)Nc1cnc2ccccc2c1,i,0.26
CC1CCc2noc(NC(=O)c3ccccc3Br)c2C1 (stereo unspecified),i,-0.41
O=C(C1CC(=O)N(C2CCCCCC2)C1)N1CCOCC1 (stereo unspecified),i,1.2
O=C(NC1CCCC1)c1c2c(nc3ccccc13)C(=O)N(C1CCCCC1)C2,i,0.49
O=C(Nc1cccc(-c2cn3ccccc3n2)c1)c1ccc(Cl)cc1,i,-0.01

# Bioassay records: PubChem BioAssay, ICCB-Longwood Screening Facility, Harvard Medical School

# A portion of the library (hit frequency here may not be typical).
